S aureus helic: S. aureus DNA helicase inhibition; purified S. aureus helicase, fluorescence unwinding assay; about half of the hits fall short of the stated cut; inhibition, %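 (tested at about 80 µM)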; 120,000 tested, 0.05% active; AID 485395;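 active = both duplicates at 50% or more, or one of them with a favoured structure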;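 also: 0% = mean of negative control wells and 100% = mean of positive control wells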
MgrA-DNA mod: S. aureus MgrA-DNA binding modulation; fluorescence polarization; inhibition, %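 (about 10 µg/mL by stock and volumes)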; 84,000 tested, 0.13% active;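 active = above 50% in either of two replicates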;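 also: 0% = protein plus DNA without compound and 100% = DNA alone without protein; higher means less MgrA bound to DNA so lower polarization; one replicate is shown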
* hit, by the source's call; · = not tested or not shown; & = joins results of further samples.

SMILES	S aureus helic	MgrA-DNA mod
NCC1CCN(S(=O)(=O)c2ccccc2)CC1	-21	·
CN(C)S(=O)(=O)c1ccc(NC(=O)C2CCCCC2)cc1	10	2.0
CC(C)(C)c1cc(N=Cc2ccc(O)cc2)c(C#N)s1	·	0.4
COc1ccc(CC(=O)OCc2nnc(C3COc4ccccc4O3)o2)cc1OC (configuration not stated)	12	·
CCCCN(CC)C(=O)c1sc2ncn(CC(=O)N(CC)CC)c(=O)c2c1C	7	·
Cc1nc2n(n1)C(C(=O)NCCc1ccccc1)CC(=O)N2 (configuration not stated)	-1	-3.7
CCCCNS(=O)(=O)c1ccccc1F	3	·
O=C(COc1ccc(Cl)cc1)N1CCCc2ccccc21	21	·
Cc1cc(NC(=O)C2Cc3ccccc3C(=O)O2)no1 (configuration not stated)	5	·
O=S(=O)(/C=C/c1ccccc1)NC12CC3CC(CC(C3)C1)C2	5	1.8
C=CCNC(=O)c1cc2ccccc2o1	-13	-0.6
N#CN=C1CCCCCN1CC(N)=O	·	2.4
COc1ccc(-n2cnc3c2C(=O)c2ccccc2C3=O)cc1	-15	4.5
CCOC(=O)C1=C(CSc2nc3sc4c(c3c(=O)n2C)CCC4)NC(=O)NC1C (configuration not stated)	-13	·
O=c1c2sc(-c3ccccc3)cc2[nH]c(=S)n1CCN1CCOCC1	-3	·
Cn1cnc([N+](=O)[O-])c1Sc1ncnc2nc[nH]c12	·	-0.5&5.2&1.3
CC(C)C(C)NC(=O)CSc1nc2ccccc2n1C (configuration not stated)	4	·
CCOc1ccc2c(=O)c(Oc3ccccc3)c(C)oc2c1C	10	-1.4
COc1cccc(/C=C2\C(=O)NC(=O)N(C)C2=O)c1	-1	6.3
N#C/C(=C(/Oc1ccc(C#N)cc1)C(F)(F)F)c1ccccc1	·	-3.2

Another view of four compounds above.
Cn1cnc([N+](=O)[O-])c1Sc1ncnc2nc[nH]c12
  S aureus helic: ·; MgrA-DNA mod: -0.5&5.2&1.3
COc1ccc(-n2cnc3c2C(=O)c2ccccc2C3=O)cc1
  S aureus helic: -15; MgrA-DNA mod: 4.5
CCCCN(CC)C(=O)c1sc2ncn(CC(=O)N(CC)CC)c(=O)c2c1C
  S aureus helic: 7; MgrA-DNA mod: ·
CCOC(=O)C1=C(CSc2nc3sc4c(c3c(=O)n2C)CCC4)NC(=O)NC1C (configuration not stated)
  S aureus helic: -13; MgrA-DNA mod: ·

Later entries:
SMILES	S aureus helic	MgrA-DNA mod
CCOC(=O)C1=C(N)Oc2ccc(Cl)cc2C1C(C#N)C(=O)OCC (configuration not stated)	-12	·
CC(=O)NC1=C(c2ccccc2)C(=O)c2ccccc2C1=O	15	·
CCCN(C(=O)CCc1nc(-c2ccccc2F)no1)c1ccccc1C	10	0.9
CCCC(C)C(=O)N1CCCCC1CC (configuration not stated)	8	0.6
C1CCC(c2nnc3n2N=C2CCCCC2S3)CC1 (configuration not stated)	-3	·
Cc1cc2c(=O)n(CC(=O)NCC(=O)N3CCCCC3)cnc2s1	5	-1.1
CCc1c(C)sc(NC(=S)N2CCN(S(C)(=O)=O)CC2)c1C(=O)OC	13	2.4
c1ccc(-c2nc(NCc3cccnc3)c3ccccc3n2)cc1	20	·
CC1=C/C(=N\NC(=O)c2ccccc2)CC1	0	·
Nc1ccc(Oc2ccc3c(c2)C(=O)N(Cc2ccco2)C3=O)cc1	4	1.6
O=C1N(Cc2ccccc2)c2cccc3cccc(c23)N1Cc1ccccc1	-1	1.1
CC(C)C(Sc1nnc(C(F)(F)F)n1C)C(=O)NC(N)=O (configuration not stated)	10	·
COc1ccc(NC(=O)c2ccc(Br)o2)cc1	-17	-2.0
CCCc1cc(=O)oc2c(CN3CCOCC3)c(O)ccc12	5	·
CCCc1nn(-c2ccc(Cl)cc2)cc1C(=O)Nc1ccc(Cl)cc1	·	0.7
NC(=O)CN1C(=O)c2ccccc2C1=O	12	·
CCOC(=O)C1=C(C)NC(C)=C(C(=O)OCC)C1C(=O)OC(C)C(=O)Nc1ccc(S(=O)(=O)N2CCCC2)cc1 (configuration not stated)	-5	·
Cc1cc(Br)ccc1NC(=O)CN1CCOCC1	·	-1.8
CCc1cc(C(c2ccc(Cl)cc2)N2CCN(CCO)CC2)c(NC(=O)c2ccccc2)s1 (configuration not stated)	3	-1.8
CC(=O)N1c2ccccc2N(Cc2ccc(C)cc2C)C(=O)C1(C)C	-1	·

Record cards, as listed above:
Results for `Cc1cc(Br)ccc1NC(=O)CN1CCOCC1` = S aureus helic = ·; MgrA-DNA mod = -1.8
Results for `c1ccc(-c2nc(NCc3cccnc3)c3ccccc3n2)cc1` = S aureus helic = 20; MgrA-DNA mod = ·

Later entries
SMILES	S aureus helic	MgrA-DNA mod
CCOc1ccc(-n2c(SCC)nc3c(c2=O)SCC3)cc1	2	·
CC(NC(=O)c1cccs1)C12CC3CC(CC(C3)C1)C2 (configuration not stated)	-18	-1.6
Cc1cc(=O)[nH]c2c1c(=O)[nH]n2C1CCCCC1	-1	1.6
CC(=O)Nc1ccc(NC2SC(=O)NC2=O)cc1 (configuration not stated)	7	5.2
CN(C(=O)Cc1c[nH]c2ccccc12)C(C(=O)Nc1ccc2c(c1)OCO2)c1ccccc1 (configuration not stated)	6	·
CCOC(=O)c1cnn(-c2ccc(NC(=O)C(F)(F)F)cc2)c1C(F)(F)F	·	-1.8
CC(SC1=N/C(=C\c2ccco2)C(=O)N1c1ccc(OC(F)F)cc1)C(=O)NCc1ccc2c(c1)OCO2 (configuration not stated)	-7	·
Cc1cccc(N2CCN(CN3C(=O)C4(OCCCO4)c4ccccc43)CC2C)c1 (configuration not stated)	3	·
C=CCNc1sc(C)nc1C(N)=O	1	-0.6
c1cncc(Oc2nc(CN3CCOCC3)nc3sc4c(c23)CCC4)c1	-1	·
CN(C)c1cccc(C(=O)NN)c1	-6	·
CC(=O)NS(=O)(=O)c1ccc(NC(=O)c2ccc(C)c(C)c2)cc1	-7	1.8
COc1c(Cl)cc(CO)cc1Cl	4	1.8
CCCCn1c(SCC(=O)N(CC)C2CCS(=O)(=O)C2)nnc1C(CC)N(C)C (configuration not stated)	-2	·
CCCCOc1ccc(C(C)(C#N)CC#N)cc1 (configuration not stated)	-5	4.1
CN1CCc2c(OCc3ccc(Cl)cc3)cccc2C1=O	15	·
c1ccc(NC2CCCCC2)nc1	·	2.2
Cc1onc(-c2ccccc2)c1C(=O)c1ccccc1	·	0.0
CCC(=O)N1N=C(c2c(-c3ccccc3)c3cc(Cl)ccc3[nH]c2=O)CC1c1ccccc1OC (configuration not stated)	·	2.4
CCN(CC(=O)NCc1ccc(Cl)cc1)Cc1nnc(-c2ccc(F)cc2)o1	2	·
CC1(C)CC(=O)c2sc(N)nc2C1	2	·
Cc1nc2c(-c3ccc(Cl)cc3)c(C(F)(F)F)[nH]n2c(=O)c1Cc1ccccc1	15	0.3
CC(C)c1ccc(NC(=O)c2cc3n(n2)C(C(F)(F)F)CC(c2ccco2)N3)cc1 (configuration not stated)	20	4.8
O=C(c1ccccc1Nc1ccc(SC(F)F)cc1)N(CCO)CCO	4	·
CN1C(=O)C2C(c3cccc(Br)c3)C(C#N)=C(N)OC2N(C)C1=O (configuration not stated)	10	0.2
CC1CCCC/C1=N\NC(=S)Nc1ccccc1 (configuration not stated)	-5	·
Cc1ccc(Nc2cc(C(=O)NCC3CCCO3)c3ccccc3n2)cc1C (configuration not stated)	6	-0.2
CCn1c(N2CCN(S(C)(=O)=O)CC2)nc2ccccc21	9	-2.5
O=C1OC2(C(=O)c3ccccc3C2=O)/C(=C(\O)c2ccc(Br)cc2)C1=O	12	·
N#Cc1c(-n2cccc2/C=N/NC(N)=S)sc2c1CCCC2	·	1.1
COc1ccc(NS(=O)(=O)c2ccc(OCC(F)(F)F)c(C#N)c2OCC(F)(F)F)cc1	·	1.8
NC(=O)c1cc(-c2ccccc2)sc1NC(=O)c1ccco1	-5	1.9
Cc1ccc2c(c1)C(=O)C1(O)CCN(c3ccccc3)C1=N2 (configuration not stated)	·	-0.2
CN1CCC(N(C)C(=O)CNC(=O)c2ccc(C(C)(C)C)cc2)CC1	12	·
CC(=O)Nc1ccc2c(COC(=O)c3ccc(-n4cnnn4)cc3)cc(=O)oc2c1	16	·
CN(C)S(=O)(=O)n1cc(/C=C(\NC(=O)c2ccccc2F)C(=O)NCc2ccco2)c2ccccc21	15	·
O=c1c2ccccc2cnn1CCc1ccccc1	·	-1.6
C=CCn1c(CC(C)C)nnc1SCC(=O)Nc1ccc(OC)cc1	17	5.5
Nc1ccccc1SC(C(=O)Nc1cc(C(F)(F)F)cc(C(F)(F)F)c1)c1ccccc1 (configuration not stated)	·	3.7
Cc1ccc(-n2c(O)c(/C=N/c3ccccn3)c3ccccc3c2=O)cc1C	29	0.6

Grouped by structure: those above containing a tert-butyl group
SMILES	S aureus helic	MgrA-DNA mod
CC(C)(C)c1cc(N=Cc2ccc(O)cc2)c(C#N)s1	·	0.4
CN1CCC(N(C)C(=O)CNC(=O)c2ccc(C(C)(C)C)cc2)CC1	12	·

(listing goes on)
SMILES	S aureus helic	MgrA-DNA mod
O=C(CCn1c(=O)c2cccn2c2cccnc21)N1CCCC1	-16	2.5
N#Cc1cccnc1NNC(=O)Nc1ccc(OCc2ccccc2)cc1	20	·
CCOC(=O)C1CCCn2c1nc1sc3c(c1c2=O)CCCC3 (configuration not stated)	-21	0.3
O=c1[nH]ncc(N/N=C\C2CC=CCC2)c1Cl (configuration not stated)	32	·
COc1ccc2c(c1)c(CC(=O)OCC(=O)N1CCOCC1)c(C)n2C(=O)c1ccc(Cl)cc1	10	·
CC(C)Cn1cnc2c1c(=O)n(CC(=O)NCc1ccc(F)cc1)c(=O)n2CC(C)C	5	·
COc1ccc(C2=NC(CO)(CO)CO2)cc1	4	-2.5
S=c1nn[nH]n1C1CCCCCCC1	-19	·
O=C(NCc1ccccc1)c1ccccc1NS(=O)(=O)c1ccc(F)cc1	4	0.4
COc1cccc(Nc2cc(C)c3ccccc3n2)c1	13	0.8
CC(C)c1cc(=O)n2[nH]c(N)nc2n1	13	0.4
CCCCN1C(=O)C(O)(CC(=O)c2ccco2)c2cc(Br)ccc21 (configuration not stated)	1	·
O=C(NCc1ccccc1)N1CCn2cccc2C1c1ccccc1 (configuration not stated)	2	·
CCC1Sc2ccccc2N(CC(=O)NC2CC2)C1=O (configuration not stated)	9	-0.7
Cn1c(=O)[nH]c(=O)c2c1nc(NCCN1CCOCC1)n2CC(O)c1ccccc1 (configuration not stated)	6	-2.6
O=C(CN1C(=O)CC(c2ccccc2)Sc2ccccc21)NC1CCCCC1 (configuration not stated)	-26	·
Oc1cccc(Nc2nc3ccc(Cl)cc3n3cnnc23)c1	21	·
COc1ccc(Cc2nnc(Nc3c(C)cccc3C)o2)cc1OC	-13	·
Cn1c(=S)sc2ccccc21	11	·
O=S(=O)(NC1CC1)c1ccc(S(=O)(=O)N(Cc2ccccn2)C2CC2)cc1	16	-1.1
CC(C)(C)c1ccc(CCCNCCN2CCNCC2)cc1	-8	·
CC1CCCCN1C(=O)Cc1coc2ccc3ccccc3c12 (configuration not stated)	-17	·
CC(NC(=O)CSc1n[nH]c(=O)n1C1CC1)C12CC3CC(CC(C3)C1)C2 (configuration not stated)	-14	·
CC(=O)NCc1ccc(C(=O)CSc2nc3c(Cl)cc(Cl)cc3[nH]2)o1	-18	·
CNCc1n[nH]c2c1CCCC2	2	-2.6
CCOC(=O)C(C)OC(=O)C1=C(C)NC(=O)NC1c1cc(OC)c(OC)c(OC)c1 (configuration not stated)	·	0.9
C[N+]1(CC(O)c2ccccc2)CCCCCC1 (configuration not stated)	6	-0.7
O=C1OC(c2ccccc2Cl)Sc2ccccc21 (configuration not stated)	·	-1.1
Cc1ccc2oc(=O)n(CCc3noc(-c4cccs4)n3)c2c1	·	-0.8
O=C(CSc1nnc(NC(=O)C23CC4CC(CC(C4)C2)C3)s1)Nc1nccs1	23	·
CCOC(=O)C1CCN(S(=O)(=O)c2nc3nc(C)cc(C)n3n2)CC1	2	4.5
COc1ccc(COCC(O)CNC2Cc3ccccc3C2)cc1 (configuration not stated)	·	1.6
O=C(CCn1nc(-c2ccccc2)c2ccccc2c1=O)Nc1cccnc1	-17	0.3
O=C(CCn1c(SCc2cccc(F)c2)nc2ccccc2c1=O)NCCc1ccccc1	-6	-0.2
Cc1cc(C)c2c(NS(=O)(=O)c3ccc(Cl)cc3)n[nH]c2n1	-11	·
O=C1CCCc2cc(S(=O)(=O)NCC3CCC(C(=O)N4CCCCCC4)CC3)ccc2N1 (configuration not stated)	14	·

These rows are one share of the data, so the mix of outcomes need not match the whole.
